Rango-impB inh: qHTS Assay for Inhibitors of Rango (Ran-regulated importin-beta cargo) - Importin beta complex formation; Rango CFP/YFP FRET sensor + importin beta, 45 min; AID 540263, 2011; Potency, µM (doses to about 92.2 µM), for inactives: top-dose inhibition of complex formation; 340,000 tested, 0.031% active; Importin subunit beta-1 (Homo sapiens), Q14974; active = rising FRET ratio curve, often small or poorly fitted; inconclusive = mostly compound fluorescence or quenching in the first reads; inactive = flat curves in all reads;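 further: potency means the concentration at half of the fitted maximal effect; 0% = DMSO wells and 100% = buffer wells lacking importin beta; nearly all actives have a fitted effect of over 15% in size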
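FRET biosensor (snurportin 1 IBB flanked by EYFP and cerulean), 50 nM, with compound 5 min, then 0.125 microM importin beta in PBS, 1 mM DTT, 0.02% Tween-20, 0.1% BSA. CFP/YFP ratio read after 45 min at room temperature; pre-read flags interference.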
GLA inh pH 4.5: qHTS Assay for Inhibitors of Human alpha-Galactosidase at pH 4.5; AID 1467, 2008; purified enzyme, 4-MU-alpha-Gal fluorescence, pH 4.5; 230,000 tested, under 10 active; activity change, negative = inhibition, % at 105 µM; inconclusive = small, poorly fitted or top-dose-only inhibition, or a rising curve; inactive = flat fitted curve, though single readings scatter; no compound was filed as active;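 further: 0% = full activity with enzyme and -100% = basal without enzyme; dose as in the result columns while the protocol names 77 µM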
Target sequence (P06280 whole entry, looked up): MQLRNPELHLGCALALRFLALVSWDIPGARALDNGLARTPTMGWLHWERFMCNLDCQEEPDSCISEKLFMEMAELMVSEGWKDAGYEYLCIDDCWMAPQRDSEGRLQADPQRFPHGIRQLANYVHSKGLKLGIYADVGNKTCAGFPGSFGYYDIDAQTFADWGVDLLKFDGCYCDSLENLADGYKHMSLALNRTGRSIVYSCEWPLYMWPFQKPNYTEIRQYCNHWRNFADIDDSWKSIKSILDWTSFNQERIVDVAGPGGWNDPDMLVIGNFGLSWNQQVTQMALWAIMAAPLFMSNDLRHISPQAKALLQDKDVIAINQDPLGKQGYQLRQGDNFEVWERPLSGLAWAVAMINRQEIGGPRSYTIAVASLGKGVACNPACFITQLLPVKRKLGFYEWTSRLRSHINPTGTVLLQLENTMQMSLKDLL
miR-21 FLuc: qHTS Assay for Modulators of miRNAs and/orActivators of miR-21; HeLa miR-21 FLuc reporter, luciferase, 48 h; Potency, µM (doses to about 38.3 µM), inactives show top-dose reporter change, positive = more light; AID 2288, 2010; 340,000 tested, under 10 active; active = well fitted rising curve with a large enough effect; inconclusive = small, poorly fitted or top-dose-only effect; inactive = no such curve, though single readings can be large or run the other way;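 further: % of control where 0% means no effect; miR-21 action dims this reporter so a rising signal means less miR-21 action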
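HeLa cells endogenously expressing miR-21, stably carrying CMV-driven firefly luciferase with a downstream miR-21 binding site, 2000 cells/well. Titrations up to approximately 40 uM, 48 hours; luciferase luminescence read.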
Rango dissoc inh: qHTS Assay for Inhibitors of RanGTP induced Rango (Ran-regulated importin-beta cargo) - Importin beta complex dissociation. Snurportin-1 (Homo sapiens) + GTP-binding nuclear protein Ran (Homo sapiens) + Importin …. Biochemical FRET Rango-importin beta, RanGTP-induced dissociation. Potency, µM (doses to about 46.1 µM), for the others: at the highest dose activity change, negative = inhibition. 340,000 tested, 0.071% active; active means falling FRET ratio curve, often poorly fitted, with flat reads before Ran was added; inconclusive means other falling curves, or compound fluorescence or quenching; inactive means flat or rising ratio curve;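 further: potency means the concentration at half of the fitted maximal effect; % of control where 0% means no effect; nearly all actives have a fitted effect of over 45% in size; -100% = wells without RanGTP and RCC1; the record marks most hits as doubtful in a second field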
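Rango FRET biosensor (snurportin-1 IBB flanked by N-terminal EYFP and C-terminal CFP10) at 0.1 uM, with 0.25 uM importin beta in PBS, 1mM DTT, 0.02% Tween-20, 0.1% BSA. 0.6 uM Ran, 2mM GTP and 0.2 uM RCC1 were then added for 45 min at room temperature. Inhibition read as loss of FRET rise.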
* = called active by the depositor; u = inconclusive; x = no result given; & = joins results of further samples. Only part of the results is shown; rates above refer to the full screens.

SMILES | Rango-impB inh | GLA inh pH 4.5 | miR-21 FLuc | Rango dissoc inh
Cc1cccc(NC(=O)C(NS(=O)(=O)c2ccc3c(c2)CCC(=O)N3)c2ccccc2)n1 (stereo unspecified) | 0.5% | -1 | 8% | -21%
COc1ccc(CCN2CC(C(=O)NCCc3ccc(F)cc3)CCC2=O)cc1 (stereo unspecified) | -0.4% | x | -2% | 0%
COc1cccc(NC(=O)CN(C)C(C)C(=O)Nc2ccc(C(C)=O)cc2)c1 (stereo unspecified) | -5.4% | 3 | -7% | 1%
O=C(NCCc1cn2ccccc2n1)c1cc(COc2c(F)cccc2F)on1 | -0.6% | 6 | -4% | -21%
O=C(NCC(c1ccco1)N1CCc2ccccc21)C(=O)Nc1ccc(F)cc1F (stereo unspecified) | 4.9% | x | x | 20%
COc1ccccc1CNC(=O)c1[nH]c(C)c(C(C)=O)c1C | -1.5% | x | 0% | 2%
Cc1cccc(/C=C2\Oc3cc(OS(C)(=O)=O)ccc3C2=O)c1 | u | -15 | -36% | -18%
Cc1c(NC(=O)CSc2ccccc2C(=O)Nc2cccnc2)c(=O)n(-c2ccccc2)n1C | 0.6% | -1 | -1% | 2%
COC(=O)C1=C(C)N(C)C(=S)NC1c1ccc(OC)cc1OC (stereo unspecified) | -0.1% | 4 | 2% | 1%
CCC(=O)Nc1cc(-c2nn(C)c(=O)c3ccccc23)ccc1N1CCCCC1 | 0.5% | -13 | -2% | -5%
Cn1c(N)c(C(=O)c2ccc(C#N)cc2)c(=O)n(C)c1=O | -2.1% | 0 | -2% | 52%
CC(=O)Nc1ccc(S(=O)(=O)NCC(=O)OCC(=O)c2cc(C)n(-c3ccc4c(c3)OCO4)c2C)cc1 | -2.0% | -18 | 0% | -5%
Cc1ccn2cc(-c3ccc(S(=O)(=O)N4CCOCC4)cc3)nc2c1 | x | 1 | -26% | x
Cc1cc([N+](=O)[O-])nn1CC(=O)NCCCN1CCOCC1 | -0.9% | x | -7% | -19%
COCC(=O)NCCSc1c(C)[nH]c2ccccc12 | -0.1% | 16 | -2% | 1%
CCCCn1c(N)c(N(CCOC)C(=O)C2CC(=O)N(c3ccc(CC)cc3)C2)c(=O)[nH]c1=O (stereo unspecified) | -3.5% | x | x | 62%
COc1cc(C(=O)Nc2ccc3nc4n(c(=O)c3c2)CCCC4)ccc1Br | -0.7% | x | -6% | -5%
CCCN(CCC)CCNS(=O)(=O)c1ccc2c(c1)CCN2C(=O)C1CCC1 | -3.7% | -5 | -8% | 2%
CSc1nc2nc3c(cc2c(=O)n1-c1ccccc1C)COC(C)(C)C3 | 0.7% | 5 | 6% | -6%
CC(Sc1ccccc1)C(=O)Nc1ccc(S(=O)(=O)N2CCOCC2)cc1 (stereo unspecified) | 2.2% | -3 | -10% | 2%
CC(C)C(NS(=O)(=O)c1cccs1)C(=O)N1CCC(C(N)=O)CC1 (stereo unspecified) | -2.7% | x | x | 21%
COc1ccccc1C(=O)NNC(=O)C12CC3CC(CC(C3)C1)C2 | 0.1% | x | -6% | 7%
CC(=O)N1CC(C)Sc2ccc(S(=O)(=O)NCCc3ccccc3)cc21 (stereo unspecified) | -1.4% | x | -16% | -12%
CC(C)[C@H](NC(=O)Nc1ccccc1F)C(=O)O | 0.1% | 1 | -2% | -11%

An excerpt from above in order of their number in GLA inh pH 4.5, high to low.
SMILES | Rango-impB inh | GLA inh pH 4.5 | miR-21 FLuc | Rango dissoc inh
COCC(=O)NCCSc1c(C)[nH]c2ccccc12 | -0.1% | 16 | -2% | 1%
CSc1nc2nc3c(cc2c(=O)n1-c1ccccc1C)COC(C)(C)C3 | 0.7% | 5 | 6% | -6%
Cc1ccn2cc(-c3ccc(S(=O)(=O)N4CCOCC4)cc3)nc2c1 | x | 1 | -26% | x
CC(Sc1ccccc1)C(=O)Nc1ccc(S(=O)(=O)N2CCOCC2)cc1 (stereo unspecified) | 2.2% | -3 | -10% | 2%
CCCN(CCC)CCNS(=O)(=O)c1ccc2c(c1)CCN2C(=O)C1CCC1 | -3.7% | -5 | -8% | 2%

Next structures.
SMILES | Rango-impB inh | GLA inh pH 4.5 | miR-21 FLuc | Rango dissoc inh
COc1ccc(C(=O)Nc2c(-c3ccccc3)nc3ccccn23)c(OC)c1 | -0.9% | x | -5% | 1%
O=[N+]([O-])c1ccccc1/C=C/CN1CCCCC1CO (stereo unspecified) | 2.3% | x | 0% | -8%
N#C/C(=C\c1ccc(O)c([N+](=O)[O-])c1)c1nc2ccccc2s1 | 1.2% | -12 | -8% | 10%
CC(C)CN(C(=O)CN(C)C(=O)c1ccco1)c1c(N)n(CC(C)C)c(=O)[nH]c1=O | 0.6% | x | x | -9%
C=CC[C@H](CC(=O)NCCO)C(=O)N[C@H](C)COC(=O)[C@@H](CC=C)Cc1ccc(F)cc1 | -2.5% | x | x | -9%
Cc1ccc(S(=O)(=O)c2cc(Nc3ccccc3)ccc2O)cc1 | u | x | x | 2%
O=C(Cc1c(F)cccc1Cl)NNC(=O)c1ccccc1Cl | -1.7% | x | x | -6%
COC(=O)c1ccccc1NC(=O)C1(S(=O)(=O)c2ccc(Cl)cc2)CC1 | 2.7% | x | 0% | 0%
CCn1cc(C(=O)N[C@@H](CCSC)C(=O)NCCOC)c(=O)c2cc3c(cc21)OCO3 | u | x | -11% | -7%
CCN(CC)CCC(c1ccc(N(C)C)cc1)c1c(O)cc(OC)cc1OC (stereo unspecified) | 2.0% | -13 | 3% | 7%
Cc1sc2ncnc(N(C)C3CCCCC3)c2c1C | u | x | -19% | 6%
Cc1cc(-c2[nH]nc3c2C(c2cccc(O)c2)C(C#N)=C(N)O3)c(C)s1 (stereo unspecified) | 1.7% | -6 | -7% | -12%
CN(c1ccc(C(=O)Nc2cccnc2)cc1)S(=O)(=O)c1ccccc1 | 3.6% | x | 6% | 20%
CN(C)c1ccc(NC(=O)CN2CCC(N3CCCCC3)CC2)cc1 | -1.4% | -6 | -2% | -5%
CSc1ccccc1C(=O)N1CCOCC1 | -1.5% | -3 | -2% | -11%
CCOc1cc(C(=O)NCC(=O)N2CCC3(CC2)NCCc2[nH]cnc23)cc(OCC)c1OCC | -9.5% | x | -4% | 2%
CCOc1cc(CN2CCCC(CNC(=O)c3ccc(F)cc3)C2)ccc1OC (stereo unspecified) | -4.8% | -5 | 0% | 16%
COc1ccc(S(=O)(=O)N2CCC(C(=O)N3CCOCC3)CC2)cc1 | -1.9% | -22 | -5% | -4%
COc1ccc(OC)c(-c2csc(N(CC3CCCO3)C(=O)Cc3ccccc3)n2)c1 (stereo unspecified) | 2.2% | 1 | -6% | -6%
Cc1ccc(CSC2=NCCN2C(=O)C(C)Oc2ccccc2)cc1 (stereo unspecified) | -7.6% | -7 | -2% | 21%
O=C(Nc1ccc(O)c2c(=O)cc(-c3ccccc3Cl)oc12)c1ccc(Cl)c(Cl)c1 | 1.3% | 4 | -1% | -4%
CCOC(=O)/C(C#N)=C/Nc1cc(C(=O)OCC)cc2c(OC)c(OC)ccc12 | -3.9% | 4 | 0% | 2%
COc1ccc(-c2ccc3c(c2)S(=O)(=O)c2cccc(C(=O)O)c2C3=O)cc1OC | 0.5% | x | x | 3%
C[C@]12c3[nH]c4ccccc4c3CCN1C(=O)C(CC(=O)NCCc1ccccn1)C[C@@H]2C(=O)N1CCCCC1 (stereo partly specified) | u | x | x | -11%
CC(C)CC(=O)NCc1ccc(F)cc1 | -8.1% | 10 | -2% | 11%
O=C(c1c[nH]c2ccc(S(=O)(=O)N3CCOCC3)cc2c1=O)N1CCN(c2ccccn2)CC1 | -2.5% | -1 | -4% | -1%
COCCNC(=O)C(c1ccc(F)cc1)N(CCOC)C(=O)CCC(=O)Nc1ccccn1 (stereo unspecified) | -0.8% | x | 0% | -2%
Cc1ccc(SCC(=O)O/N=C(\N)c2cccc([N+](=O)[O-])c2)cc1 | 0.1% | -17 | -5% | 6%
COc1ccc(N2CCN(CCNC(=O)CCC(=O)NNc3nc4ccccc4c4nc(C)nn34)CC2)cc1 | 0.1% | x | 7% | 29%
CCCCCn1c(CN2CCN(Cc3ccccc3)CC2)nc2c1c(=O)n(C)c(=O)n2C | -2.6% | -25 | 0% | -9%
Cc1ccc(NC(=O)NC(=O)N(C(C)C)S(C)(=O)=O)nc1 | 0.8% | -4 | -17% | -14%
COC(=O)Cc1ccc(NC(=S)NNC(=O)C2CC2)cc1 | 0.8% | -6 | -1% | 2%
CC(Oc1ccc(Br)cc1)C(=O)N1CCN(c2ccccn2)CC1 (stereo unspecified) | -6.5% | x | 5% | 19%
CCCn1c(C(C)NC(C)=O)nc2ccccc21 (stereo unspecified) | -2.2% | 7 | 0% | 30%
O=C1CCN(Cc2ccc(O)cc2)CCN1[C@H](CO)c1ccccc1 | 2.3% | x | -1% | -21%
CCc1ccc(NC(=O)CC2C(=O)NCCN2C(=O)c2ccc(F)cc2)cc1 (stereo unspecified) | 8.2% | x | -9%&-11% | -13%
COc1ccc(NS(=O)(=O)c2cc3c(cc2C)N(C(C)=O)CCO3)cc1OC | -0.4% | x | 1% | 0%
Cc1ccccc1-c1nc(CS(=O)(=O)CC(=O)NCCCN2CCN(C)CC2)c(C)o1 | 3.3% | x | -4%&-4% | -13%
CCN(C(=O)c1cc2c(s1)-c1ccccc1OC2)c1cc(OC)ccc1OC | 6.1% | x | 0% | 12%
O=C(NCCc1csc(-c2ccccc2)n1)c1ccc(Br)o1 | 0.0% | -7 | -1% | 1%
C[C@H](NC(=O)c1[nH]cnc1C(=O)Nc1ccccc1)C(=O)OC(C)(C)C | 0.9% | 2 | 0% | 13%
O=C(O)C1C2CCC(C2)C1C(=O)Nc1ccc(Cl)c(Cl)c1 (stereo unspecified) | 0.7% | x | x | 4%
C/C(=N\NC(=O)c1ccco1)c1ccc(NC(=O)c2ccccc2)cc1 | 2.7% | 3 | -29% | -12%
COc1ccccc1NC(=O)CCN1CCN(C)CC1 | 3.9% | -5 | -1% | 2%
COc1ccccc1C(=O)NC(=O)COc1ccc(Cl)cc1Cl | -2.6% | x | x | -13%
C/C(=N\OCc1ccc(C#N)cc1)c1cc2ccccc2o1 | 4.6% | 0 | -14% | -13%
CC1CCc2nc(NC(=O)C3CCCO3)sc2C1 (stereo unspecified) | -3.8% | 5 | -7% | 11%
C=CCn1c(C)cc(C(=O)COc2ccc(N(C)S(=O)(=O)c3ccc(NC(C)=O)cc3)cc2)c1C | 5.7% | x | x | 10%

A stretch of the results above, for reference:
SMILES | Rango-impB inh | GLA inh pH 4.5 | miR-21 FLuc | Rango dissoc inh
CC1CCc2nc(NC(=O)C3CCCO3)sc2C1 (stereo unspecified) | -3.8% | 5 | -7% | 11%
C=CCn1c(C)cc(C(=O)COc2ccc(N(C)S(=O)(=O)c3ccc(NC(C)=O)cc3)cc2)c1C | 5.7% | x | x | 10%

More structures.
SMILES | Rango-impB inh | GLA inh pH 4.5 | miR-21 FLuc | Rango dissoc inh
c1ccc(NCc2ccccn2)cc1 | 1.8% | 7 | -23% | -15%
CCSc1nnc(-c2cc(Br)ccc2N)c(=O)[nH]1 | 5.6% | 2 | -11% | -6%
COc1cc(OC)cc(C(=O)N[C@H](C(=O)Nc2cc(C)cc(C)c2)C(C)C)c1 | -0.7% | 6 | -2% | 0%
COc1ccc2c(c1)CC/C(=C\C=C\c1ccccc1OC)C2=O | u | -12 | -53% | u
O=C(c1ccc2c(=O)n3c(nc2c1)CCCCC3)N1CCN(c2ccccc2F)CC1 | 7.8% | x | 4% | 5%
ClCCn1cnc2c(SCc3ccccc3)ncnc21 | -0.1% | x | x | 13%
CCCN(CC(=O)Nc1ccccc1C)C(=O)c1cccc(-n2cnnn2)c1 | -0.4% | x | -1% | 0%
N#C/C(=C/c1ccc(-c2ccc(C(=O)O)c(Cl)c2)o1)C(=O)NCC1CCCO1 (stereo unspecified) | u | -7 | 0% | u
CC1=NN(c2ccccc2)C(=O)/C1=C/c1ccc(Cl)cc1 | -0.2% | x | 1% | 7%
COCCNC(=O)c1cc(-c2ccccc2)n(Cc2cc(C)no2)n1 | 1.5% | x | x | -4%

Assay outcomes as filed in PubChem.
